TSHR agonist = TSH receptor (human) agonism | P16473 | HEK293-CNG-TSHR cells (CNG channel as cAMP sensor), membrane potential dye, cAMP | Potency, µM (titrated, usually from 57.1 µM), without a hit: at the top dose activation, hits mostly activators | 73,000 tested, 0.48% active | AID 926; active = well fitted activation curve of enough size with the parental cells flat; inconclusive = any curve in the parental cells; inactive = parental cells flat and receptor cells flat or falling; note: potency is the fitted concentration of half-maximal effect; % of control where 0% means no effect; weak receptor curves with flat parental cells got no call and are not listed
Target sequence (P16473 whole entry, looked up): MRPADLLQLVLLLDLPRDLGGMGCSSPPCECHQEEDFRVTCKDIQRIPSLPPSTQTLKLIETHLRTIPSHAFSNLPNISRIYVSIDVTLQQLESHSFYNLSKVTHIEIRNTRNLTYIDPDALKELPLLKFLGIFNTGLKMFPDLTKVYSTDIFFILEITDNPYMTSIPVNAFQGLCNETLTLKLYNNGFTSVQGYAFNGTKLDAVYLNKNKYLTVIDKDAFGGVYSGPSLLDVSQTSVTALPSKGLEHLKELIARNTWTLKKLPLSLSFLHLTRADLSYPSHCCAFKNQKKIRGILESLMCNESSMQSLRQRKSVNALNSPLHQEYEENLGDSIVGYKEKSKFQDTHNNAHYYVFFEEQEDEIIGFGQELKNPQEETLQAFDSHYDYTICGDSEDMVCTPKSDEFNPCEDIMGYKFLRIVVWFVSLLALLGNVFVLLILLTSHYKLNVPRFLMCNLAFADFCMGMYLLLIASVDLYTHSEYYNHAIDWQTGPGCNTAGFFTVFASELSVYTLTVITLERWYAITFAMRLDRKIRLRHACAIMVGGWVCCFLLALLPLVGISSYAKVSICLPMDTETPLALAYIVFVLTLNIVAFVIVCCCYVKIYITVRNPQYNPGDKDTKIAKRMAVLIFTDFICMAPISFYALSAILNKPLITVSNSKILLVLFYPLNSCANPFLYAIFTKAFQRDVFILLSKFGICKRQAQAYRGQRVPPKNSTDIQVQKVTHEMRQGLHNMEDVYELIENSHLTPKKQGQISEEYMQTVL
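cAMP rise detected as CNG-channel membrane depolarization by fluorescent dye (emission 590 nm), 30 min after compound, following 60 min dye loading containing 100 uM RO 20-1724 at room temperature. Cells: TSHR/CNG HEK 293, with parental CNG HEK 293 as control.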
A647 fluor = compound fluoresces in the A647 spectral region | Compound fluorescence, A647 channel (570/671 nm), Tris buffer | max dye-equivalent concentration, M | 59,000 tested, under 10 active | AID 592; active means above 1 µM dye equivalent; inconclusive means 0.1 to 1 µM; inactive means 0.1 µM or less;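 note: values scaled relative to a standard on each plate; highest value over a series up to 38 µM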
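Fluorescence read (570 nm ex, 671 nm em) after 15 min RT incubation of compounds in 100 mM Tris buffer, pH 8.0; values expressed as dye-equivalent concentration against a six-point A647 standard series on each plate.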
AID923 = qHTS Assay for Allosteric/Competitive Inhibitors of Caspase-1: Spectroscopic Profiling in AFC Spectral Region. compound fluorescence, AFC spectral region (405/520 nm); almost no hit is shown here. Potency, µM (titrated, usually from 57.5 µM), inactives show at the top dose fluorescence increase, most hits filed as activators. 75,000 tested, 1.1% active; active = well fitted activation curve with a large enough effect; inconclusive = small, poorly fitted or top-dose-only effect;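 note: potency is the fitted concentration of half-maximal effect; 0% is about no effect; scaled to a free AFC standard on each plate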
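Compound autofluorescence profiled at 405 nm ex/520 nm em during kinetic caspase 1 run (50 nM enzyme, 5 uM Ac-WEHD-AFC, HEPES pH 7.5, 10 mM DTT). Titration up to 57 uM; baseline from regression intercept, normalized to AFC standard curve.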
Resorufin fluor = compounds fluorescent in resorufin spectral region. Compound fluorescence, resorufin region 547/598 nm, buffer; hits give high values. max dye-equivalent concentration, M. 59,000 tested, 0.04% active. AID 588; active = above 10 nM dye equivalent; inconclusive = 1 to 10 nM; inactive = 1 nM or less; a few of its hits are not listed in these tables; note: highest value over a series up to 38 µM
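Intrinsic fluorescence profiled in the resorufin window (ex 547 nm, em 598 nm) after 15 min at room temperature in pH 8.0 Tris buffer (100 mM); responses normalized against a six-point resorufin standard series as dye-equivalent concentration.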
A488 autofl = A488 region autofluorescence; max dye equivalency, M; 59,000 tested, 0.1% active; compound autofluorescence, A488 spectral region, dye equivalency; hits give high values; active = above 10 nM dye equivalent; inconclusive = 1 to 10 nM; inactive = 1 nM or less; about half of its hits are not listed in these tables;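 note: highest value over a series up to 38 µM; compound alone in buffer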
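Compound autofluorescence was read in 100 mM Tris pH 8.0 after 15 min at room temperature, ex 480 nm/em 540 nm. Intensities were converted to A488 dye-equivalent concentration using an on-plate six-point A488 standard curve.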
Active calls of the source: *; & = joins results of further samples; [ ] = another dose, or the depositor's remark.

How did CCOc1cc(C(C#N)N2CCOCC2)ccc1OC (configuration not stated) do in these assays?
TSHR agonist: 4%; A647 fluor: 7.7e-09; AID923: -2.2%; Resorufin fluor: inactive; A488 autofl: inactive

How did O=C(CSc1nnc(-c2ccco2)n1CC1CCCO1)NC1CCCC1 (configuration not stated) do in these assays?
TSHR agonist: 2%[11.4 µM]; A647 fluor: 1.4e-08; AID923: 0.7%; Resorufin fluor: inactive; A488 autofl: inactive

How did CCOC(=O)c1cnn(-c2ncnc3c2cnn3Cc2ccccc2)c1N do in these assays?
TSHR agonist: 0%; AID923: -0.8%

Results for Cc1c(N=C2Nc3cccc4cccc2c34)c(=O)n(-c2ccccc2)n1C ?
TSHR agonist: -30%; A647 fluor: 2.7e-09; AID923: 4.3%; Resorufin fluor: inactive; A488 autofl: inconclusive

How did CCN1CCN(Cc2ccc(NC(=O)Nc3ccccc3OC)cc2)CC1 do in these assays?
TSHR agonist: -6%; AID923: 0.9%

What do the screens show for `CCN(Cc1cc(Cl)cc(C)c1O)Cc1c(O)ccc2ccccc12`?
TSHR agonist: -2%[11.4 µM]; A647 fluor: 5.2e-08; AID923: 2.1%[11.5 µM]; Resorufin fluor: inactive; A488 autofl: inactive

Results for O=S(=O)(c1cccc(-c2cn3cc(Cl)ccc3n2)c1)N1CCOCC1 ?
TSHR agonist: inconclusive; A647 fluor: 3.1e-09; AID923: -2.9%; Resorufin fluor: inactive; A488 autofl: inactive

Results for O=C(NC1=NCCS1)c1nc(-c2ccccc2)n(-c2ccccc2)n1 ?
TSHR agonist: 4%; A647 fluor: 1e-09; AID923: 0.4%; Resorufin fluor: inactive; A488 autofl: inactive

Results for CC(=O)C1=C(C)Nc2ncnn2C1c1ccccc1OCc1ccccc1 (configuration not stated) ?
TSHR agonist: 14%; A647 fluor: 1e-09; AID923: 3.6%; Resorufin fluor: inactive; A488 autofl: inactive

Results for COc1ccc2c(c1)CCCN2C(N)=O ?
TSHR agonist: -7%; A647 fluor: 1e-09; AID923: 1.4%; Resorufin fluor: inactive; A488 autofl: inactive

Results for COc1ccc(CCC(=O)NC2=NCCS2)cc1OC ?
TSHR agonist: -1%[11.4 µM]; A647 fluor: 2.8e-08; AID923: 0.3%; Resorufin fluor: inactive; A488 autofl: inactive

What do the screens show for `COc1ccccc1S(=O)(=O)Cc1ccc(C(=O)NCCN2CCCCCC2)o1`?
TSHR agonist: 1%; AID923: 1.2%

Retrieved by compound from the entries so far, 2 records:
Results for COc1ccc2c(c1)CCCN2C(N)=O ?
TSHR agonist: -7%; A647 fluor: 1e-09; AID923: 1.4%; Resorufin fluor: inactive; A488 autofl: inactive

Results for Cc1c(N=C2Nc3cccc4cccc2c34)c(=O)n(-c2ccccc2)n1C ?
TSHR agonist: -30%; A647 fluor: 2.7e-09; AID923: 4.3%; Resorufin fluor: inactive; A488 autofl: inconclusive

Remaining list, next part.
Results for c1ccc(-n2cnnc2SCc2cn3ccsc3n2)cc1 ?
TSHR agonist: 2%; A647 fluor: 3.1e-09; AID923: -0.6%; Resorufin fluor: inactive; A488 autofl: inactive

How did COc1ccc(CNC(=O)C2CCCN(c3nc4ccccc4o3)C2)c(OC)c1 (configuration not stated) do in these assays?
A647 fluor: 1.7e-08; AID923: -2.1%; Resorufin fluor: inactive; A488 autofl: inactive

Results for O=C1NC(c2ccccc2)C(C(=O)c2cccs2)C(O)(C(F)(F)F)N1 (configuration not stated) ?
TSHR agonist: 9%; A647 fluor: 6.1e-09; AID923: 0.4%; Resorufin fluor: inactive; A488 autofl: inactive

What do the screens show for `O=C(CSc1nnc(-c2ccc(Cl)cc2)o1)N1CCN(c2ccccc2)CC1`?
TSHR agonist: 2%; A647 fluor: 1.1e-08; AID923: -1.2%; Resorufin fluor: inactive; A488 autofl: inactive

What do the screens show for `COc1cccc(C(=O)N2CCN(Cc3cccc(F)c3)CC2)c1`?
TSHR agonist: 3%; A647 fluor: 1e-09; AID923: -0.4%; Resorufin fluor: inactive; A488 autofl: inactive

How did CN1CCN(Cc2nc3c(c(=O)n(C)c(=O)n3C)n2CCc2ccccc2)CC1 do in these assays?
TSHR agonist: 0%; AID923: 12%

How did CCOC(=O)CN(C)Cc1c[nH]c2ccccc12 do in these assays?
TSHR agonist: 4%; A647 fluor: 4.8e-09; AID923: -1.8%; Resorufin fluor: inactive; A488 autofl: inactive

What do the screens show for `CCCOc1nc2c(c(=O)n(C)c(=O)n2C)n1Cc1cccc2ccccc12`?
TSHR agonist: inconclusive; A647 fluor: 2.3e-08; AID923: 1.1%; Resorufin fluor: inactive; A488 autofl: inactive

What do the screens show for `O=C(NC1CCCc2ccccc21)C1CCN(c2c3c(nc4ncnn24)CCC3)CC1` (configuration not stated)?
TSHR agonist: 22%; A647 fluor: 4e-08; AID923: -0.3%; Resorufin fluor: inactive; A488 autofl: inactive

How did O=C(Nc1ccc(S(=O)(=O)N2CCCCCC2)cc1)c1ccco1 do in these assays?
TSHR agonist: inconclusive; AID923: 0.9%

What do the screens show for `COc1cc(OC)c(C2CC(=O)N3CN(C)CSC3=C2C#N)cc1OC` (configuration not stated)?
TSHR agonist: -3%; AID923: -0.6%

Results for CCOC(=O)CC(=O)Nc1nnc(CC(C)C)s1 ?
TSHR agonist: 0%; A647 fluor: 1.7e-08; AID923: -0.7%; Resorufin fluor: inactive; A488 autofl: inactive

How did CC(C)(Oc1ccc(CCNC(=O)c2ccc(Cl)cc2)cc1)C(=O)O do in these assays?
TSHR agonist: -16%[25.6 µM]; A647 fluor: 3.2e-08&2.2e-08; AID923: 1.3%; Resorufin fluor: inactive; A488 autofl: inactive

What do the screens show for `Cc1nc2ccc(NC(=O)N3CCOCC3)cc2s1`?
TSHR agonist: 2%; A647 fluor: 1e-09; AID923: 2.4%; Resorufin fluor: inactive; A488 autofl: inactive

How did CCOC(=O)CSCc1nc(-c2ccc(Cl)cc2)oc1C do in these assays?
TSHR agonist: 28%; AID923: 1.6%

What do the screens show for `COC(=O)C(C)N(C#N)c1nc(C)nc(C)n1` (configuration not stated)?
TSHR agonist: inconclusive; A647 fluor: 1e-09; AID923: -2.8%; Resorufin fluor: inactive; A488 autofl: inactive

How did O=c1[nH]nc2n1CCCCC2 do in these assays?
A647 fluor: 1e-09; Resorufin fluor: inactive; A488 autofl: inactive

How did CCOCCCNC(=O)c1cn(CC(C)C)c(=O)c2cc(OC)c(OC)cc12 do in these assays?
TSHR agonist: 1%; AID923: -3.4%

How did CS(=O)(=O)Nc1cccc(-c2ccc3ncnc(Nc4ccc(F)cc4)c3c2)c1 do in these assays?
TSHR agonist: inconclusive; A647 fluor: 1e-09; AID923: -0.8%; Resorufin fluor: inactive; A488 autofl: inactive

How did COC(=O)c1cccc(S(=O)(=O)N2CCC(NC(=O)Nc3cccc(F)c3)CC2)c1 do in these assays?
TSHR agonist: -1%; A647 fluor: 7e-09; AID923: -0.5%; Resorufin fluor: inactive; A488 autofl: inactive

Results for O=C(O)[C@H](Cc1ccc(O)c([N+](=O)[O-])c1)N1C(=O)c2ccccc2C1=O ?
TSHR agonist: -3%[11.4 µM]; A647 fluor: 1.5e-08; AID923: -0.2%[11.5 µM]; Resorufin fluor: inactive; A488 autofl: inactive

What do the screens show for `CC(C)(C)N1C(=O)[C@H]2[C@H]3[C@H](O)[C@H](O)C/C(=N/OC[C@@H](O)COCc4ccco4)[C@H]3CC[C@@H]2C1=O`?
TSHR agonist: -1%[11.4 µM]; AID923: 0.0%[11.5 µM]

What do the screens show for `CCCC(=O)Nc1cc(-c2nnc(OC)c3ccccc23)ccc1N1CCOCC1`?
TSHR agonist: -13%; A647 fluor: 1e-09; AID923: 1.4%; Resorufin fluor: inactive; A488 autofl: inactive

Results for Cc1ccc(S(=O)(=O)NCC(=O)NC2CCCC2)cc1 ?
TSHR agonist: -6%; A647 fluor: 2.1e-09; AID923: 0.5%; Resorufin fluor: inactive; A488 autofl: inactive

What do the screens show for `CCOc1ccc(-c2noc(CCC(N)=O)n2)cc1OCC`?
TSHR agonist: 7%; A647 fluor: 3.2e-09; AID923: 1.9%; Resorufin fluor: inactive; A488 autofl: inactive

What do the screens show for `CCOC(=O)Cc1csc(NC(=O)Cc2cccs2)n1`?
TSHR agonist: 6%[11.4 µM]; AID923: 1.4%

Results for CN(Cc1ccco1)c1ccnc(-c2cccnc2)n1 ?
TSHR agonist: 4%; A647 fluor: 1e-09; AID923: 3.2%; Resorufin fluor: inactive; A488 autofl: inactive

What do the screens show for `Cc1cc(NC(NC(=O)c2ccco2)(C(F)(F)F)C(F)(F)F)no1`?
TSHR agonist: 0%; A647 fluor: 1e-09; AID923: -0.3%; Resorufin fluor: inactive; A488 autofl: inactive

How did Cc1nc(C)n(CC(O)COc2ccc3c(c2)CCC3)n1 (configuration not stated) do in these assays?
TSHR agonist: 0%; A647 fluor: 8.1e-08; AID923: -1.3%; Resorufin fluor: inactive; A488 autofl: inactive

What do the screens show for `COc1cc(-c2nnc(SCc3ccccc3Cl)o2)cc(OC)c1OC`?
TSHR agonist: inconclusive; A647 fluor: 3.3e-08; AID923: -0.9%; Resorufin fluor: inactive; A488 autofl: inactive

How did COc1ccc(OC)c2[nH]c(=O)c(CCNC(=O)CC(C)C)cc12 do in these assays?
TSHR agonist: 1%; A647 fluor: 1.1e-08; AID923: -0.1%; Resorufin fluor: inactive; A488 autofl: inactive

What do the screens show for `COC(=O)c1ccc(C(=O)OC)c(NC2=NS(=O)(=O)c3ccccc32)c1`?
A647 fluor: 1.3e-08; AID923: 3.1%; Resorufin fluor: inactive; A488 autofl: inactive

How did CC1CCN(C(c2ccc(N(C)C)cc2)c2nnnn2Cc2ccc(F)cc2)CC1 (configuration not stated) do in these assays?
TSHR agonist: inconclusive; A647 fluor: 1e-09; AID923: 1.9%; Resorufin fluor: inactive; A488 autofl: inactive

How did O=S(=O)(c1cccc2nsnc12)N1CCc2ccccc21 do in these assays?
TSHR agonist: 8%; A647 fluor: 1e-09; AID923: 5.9%; Resorufin fluor: inactive; A488 autofl: inactive

How did CC(C)OCCCNC(=O)Cn1ncc2c(=O)oc3ccccc3c21 do in these assays?
TSHR agonist: 3%; A647 fluor: 4e-09; AID923: 0.8%; Resorufin fluor: inactive; A488 autofl: inactive

Results for Cc1cc(N)c2ccccc2[n+]1CCCCCCCCCCCCCC[n+]1c(C)cc(N)c2ccccc21 ?
A647 fluor: 1.9e-08; AID923: -4.8%; Resorufin fluor: inactive; A488 autofl: inactive

What do the screens show for `COC(=O)c1[nH]c2cc(OC)ccc2c1NC(=O)CCN1CCN(c2cccc(C)c2C)CC1`?
TSHR agonist: inconclusive; A647 fluor: 3.9e-08; AID923: 1.0%; Resorufin fluor: inactive; A488 autofl: inactive

Results for O=C(c1sc2ccccc2c1Cl)N(Cc1cccs1)C1CCS(=O)(=O)C1 (configuration not stated) ?
TSHR agonist: 33%; AID923: 2.6%

What do the screens show for `O=C(CN1C(=O)COc2ccccc21)N(Cc1ccccc1)Cc1ccccn1`?
TSHR agonist: inconclusive; A647 fluor: 4.1e-09; AID923: -1.8%; Resorufin fluor: inactive; A488 autofl: inactive

What do the screens show for `CN1CCN2c3ccccc3Cc3ccccc3C2C1` (configuration not stated)?
A647 fluor: 4.3e-08; AID923: 6.7%; Resorufin fluor: inactive; A488 autofl: inactive

How did Brc1ccc(-c2nnc3sc(CN4CCC5(CC4)OCCO5)cn23)cc1 do in these assays?
TSHR agonist: 4%; A647 fluor: 3.3e-09; AID923: 1.1%; Resorufin fluor: inactive; A488 autofl: inactive

What do the screens show for `NCCOc1ccccc1-c1ccccc1`?
TSHR agonist: 7%; A647 fluor: 2.1e-08; AID923: -1.4%; Resorufin fluor: inactive; A488 autofl: inactive

Results for OC1CN=C2CCCc3c2n(c2ccc(Cl)cc32)C1 (configuration not stated) ?
TSHR agonist: -3%; A647 fluor: 8.4e-09; AID923: 15%; Resorufin fluor: inactive; A488 autofl: inactive

Screening results from PubChem BioAssay.

These rows are one share of the data; rates above refer to the full screens.
